RE007 growth inh – qHTS Assay for Inhibitors of the HIV-1 protein Vpr | S. pombe RE007 Vpr strain, BacTiter-Glo ATP luminescence, 24 h; control for the full effect not named in the record | Potency, µM (series often up to 92.2 µM), without a hit: at the highest dose activity change, negative = less growth | actives 0.21% (n = 360,000) | AID 651644, 2012; active = well fitted falling curve with a large enough effect; inconclusive = small, poorly fitted or top-dose-only effect; inactive = no such curve, though single readings can be large or run the other way;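 note: % is set by controls: 0 for no effect and ±100 for the full control effect; nearly all actives have a fitted effect of over 50% in size; the assay follows cell death caused by Vpr and the record does not say whether a fall means rescue or toxicity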
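Fission yeast RE007 carrying one integrated HIV-1 vpr copy, seeded at OD 0.01 in PMG+AL medium with 23 nL pinned compound. Grown 24 h at 30 degrees; viability read by BacTiter-Glo luminescence after 5 min.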
2A StopGo – High Throughput Screening for Foot and Mouth Disease Virus Antivirals; Potency, µM (series often up to 57.9 µM), for inactives: at the highest dose signal change, negative = less light; actives 1.2% (n = 410,000); human cells with a luciferase reporter of 2A StopGo recoding; control for the full effect not named in the record; AID 1159524, 2015; active = well fitted falling curve with a large enough effect; inconclusive = small, poorly fitted or top-dose-only effect; inactive = no such curve, though single readings can be large or run the other way; tested in HEK293T cells; note: % is set by controls: 0 for no effect and ±100 for the full control effect; nearly all actives have a fitted effect of over 45% in size; luciferase light after 4 h
SARS PLpro yeast – qHTS of Yeast-based Assay for SARS-CoV PLP | AID 485353, 2010 | S. cerevisiae expressing SARS-CoV PLpro, growth rescue; control for the full effect not named in the record | Potency, µM (series often up to 32.9 µM), for the others: at the highest dose activity, positive = growth rescue | actives 0.19% (n = 330,000); active means well fitted rising curve with a large enough effect; inconclusive means small, poorly fitted or top-dose-only effect; inactive means no such curve, though single readings can be large or run the other way; note: 0% is about no effect; nearly all actives have a fitted effect of over 55% in size; growth read by luminescence after 48 h
The depositor's hits bear a star; ? = inconclusive; [ ] = remark or other dose. Potency is the fitted concentration of half-maximal effect.

SMILES	RE007 growth inh	2A StopGo	SARS PLpro yeast
CN1C(=O)[C@H]2[C@@H](/C=C/c3ccccc3)N3C(=O)CN(Cc4ccc(-c5ccccc5)cc4)C(=O)[C@@]3(C)[C@H]2C1=O	-3%	-24%	-5%
COC(=O)[C@H](CC(C)C)NS(=O)(=O)N[C@@H](CC(C)C)C(=O)OC	3%	-9%	3%
CC1CCN(C(=O)COC(=O)c2ccc3ccccc3n2)CC1	4%	-6%	8%
COCCCNC(=O)C[C@H]1C[C@H](C(=O)N2CCCCC2)[C@@]2(CCc3ccccc3)c3[nH]c4cc(-c5ccco5)ccc4c3CCN2C1=O	-2%	-15%	3%
C#CCOCCOCCOCCNc1nc(N2CCN(C(=O)CCCCCCCCCCNC(=O)[C@@H](CCSC)n3cc(CCO)nn3)CC2)nc(N2CCN(C(=O)CCCCCCCCCCNC(=O)[C@H](CCC(=O)O)n3cc(CCCCCN)nn3)CC2)n1	10%	-7%	-1%
O=C(CNC(=O)c1cccc(-n2cnnn2)c1)Nc1ccc(F)c(F)c1	0%	-9%	4%
CC1CCN(S(=O)(=O)c2cc(C(=O)NC3(C)CCS(=O)(=O)C3)ccc2Br)CC1 (stereo not drawn)	-4%	-23%	16%
Cc1cc(C)n(CC(=O)N/N=C/c2cc(Br)cc([N+](=O)[O-])c2O)n1	-14%	-10%	-3%
CC1CCN(C(=O)Cn2c(=O)n(-c3ccc(F)cc3)c(=O)c3sccc32)CC1	14%	-3%	-2%
CC(C)(C)c1ccc(C(=O)Nc2ccccc2Cl)cc1	2%	17%	-12%
CCn1c(SCC(=O)NCC2CCCO2)nc2ccccc21 (stereo not drawn)	10%	-10%	4%
CN(c1ccccc1)S(=O)(=O)c1cccc(C(=O)NC2CC(C)(C)NC(C)(C)C2)c1	0%	28%	0%
O=C(Nc1nsc(-c2ccccc2)n1)c1ccc(F)cc1	-14%	46%[activator]	-4%
COc1ccc(CNC(=O)COC(=O)C2(C)CC2(Cl)Cl)cc1 (stereo not drawn)	-8%	-16%	-1%
C[C@]12c3[nH]c4ccc(Cl)cc4c3CCN1C(=O)[C@@H](CC(=O)NCc1cccc(C(F)(F)F)c1)C[C@@H]2C(=O)N1CCOCC1	0%	-43%	-21%
CCN(C(=O)CSc1nccn1C)c1cccc2ccccc12	-3%	-7%	1%
CCN(CC)C(=O)CSc1nc2c(sc(=S)n2-c2ccccc2)c(=O)[nH]1	12%	-15%	0%
O=C(NCc1ccccc1CN1CCCC1)C1CCN(S(=O)(=O)c2ccc(Cl)cc2)CC1	-8%	4%	2%
Cc1cc(C)c(C(=O)COC(=O)C2CCN(c3ccc(C(F)(F)F)cn3)CC2)cc1C	6%	6%	-18%
Cc1cccc(C)c1OCCOC(=O)c1cccc(S(=O)(=O)N2CCOCC2)c1	-14%	0%	-3%
Cc1cc(C)cc(OCC(=O)Nc2ccc(N3CCOCC3)cc2N2CCOCC2)c1	-9%	?	-8%
COC(=O)c1cc(C(=O)OCC(=O)NCc2cccs2)cc([N+](=O)[O-])c1	-7%	-18%	0%
CCN1C(=O)[C@@H]2[C@@H](c3ccc(-c4ccc(F)cc4)cc3)N3CCC[C@@]3(C(=O)OC)[C@@H]2C1=O	-15%	?	-2%
Cc1ccccc1C(=O)Nc1cc(S(=O)(=O)N2CCOCC2)ccc1N1CCN(C)CC1	-7%	-17%	-3%
CCN1C(=O)C(=O)N(CC(=O)Nc2cc(C)ccc2C)C1=O	-5%	-23%	2%
Cc1nn(-c2ccc(C(=O)N3CCN(S(=O)(=O)c4ccccc4C(F)(F)F)CC3)cc2)c(C)c1Cl	-1%	?	3%
O=C(CSc1nc2ccccc2[nH]1)Nc1c(F)c(F)c(F)c(F)c1F	6%	9%	-2%
Nc1ncnc2c1ncn2[C@@H]1O[C@H](CNS(=O)(=O)C2CC2)[C@@H](O)[C@H]1O	-6%[18.4 µM]	-22%	8%
CCCCN(C(=O)C(C)(C)Oc1ccc(Cl)cc1)c1c(N)n(CCC)c(=O)[nH]c1=O	-3%	-1%	0%
COc1cc(OC)cc(-c2sc3ccc(OC)cc3c2C#CC(C)(C)O)c1	12%	-11%	2%
Cc1cc(=O)oc2cc(OCC(=O)N3CCN(c4ccccc4)CC3)ccc12	-9%	-17%	-1%
CC(=O)CSc1ccc(S(=O)(=O)N2CCN(C)CC2)cn1	-4%	-4%	2%
NC(N)=NS(=O)(=O)c1ccc(NC(=S)NC(=O)c2ccc3c(c2)OCO3)cc1	-5%	-11%	2%
c1ccc(NC2=NCCN2CC2CCCCCC2)cc1	-3%	0%	-1%
Cc1nnc2ccc(-c3cccc(NC(=O)Cc4cccs4)c3)nn12	10%	0%	1%
COc1ccc(-c2c(-c3cc(OC)cc(OC)c3)n(C)c3ccc(-c4cnc(N)nc4)cc23)cc1	-2%	-8%	0%

5 compounds drawn at random from the list so far, as already listed:
SMILES	RE007 growth inh	2A StopGo	SARS PLpro yeast
CCCCN(C(=O)C(C)(C)Oc1ccc(Cl)cc1)c1c(N)n(CCC)c(=O)[nH]c1=O	-3%	-1%	0%
CCN1C(=O)C(=O)N(CC(=O)Nc2cc(C)ccc2C)C1=O	-5%	-23%	2%
Cc1nnc2ccc(-c3cccc(NC(=O)Cc4cccs4)c3)nn12	10%	0%	1%
CC(=O)CSc1ccc(S(=O)(=O)N2CCN(C)CC2)cn1	-4%	-4%	2%
O=C(CSc1nc2ccccc2[nH]1)Nc1c(F)c(F)c(F)c(F)c1F	6%	9%	-2%

Among those listed so far, two contain a nitro group on carbon:
SMILES	RE007 growth inh	2A StopGo	SARS PLpro yeast
Cc1cc(C)n(CC(=O)N/N=C/c2cc(Br)cc([N+](=O)[O-])c2O)n1	-14%	-10%	-3%
COC(=O)c1cc(C(=O)OCC(=O)NCc2cccs2)cc([N+](=O)[O-])c1	-7%	-18%	0%

(further entries)
SMILES	RE007 growth inh	2A StopGo	SARS PLpro yeast
O=C(NNC(=O)c1ccc(Br)s1)c1ccc(F)c(S(=O)(=O)N2CCOCC2)c1	1%	?	1%
CCCCCCN1CCN(c2ccccc2Cl)CC1	-14%	-4%	0%
COc1cc(OC)cc(-c2c(C#Cc3ccsc3)c3cc(-c4cnc(OC)nc4)ccc3n2C)c1	-12%	-28%	-6%
CN(C(=O)COC(=O)CNC(=O)C1CCCCC1)c1ccccc1	4%	-18%	-8%
CSc1ccc(/C=C/C(=O)OCC(=O)NC2CC2)cc1	7%	8%	-1%
COc1ccc(N2CCN(C(CNC(=O)C(C)(C)C)c3cccnc3)CC2)cc1 (stereo not drawn)	-4%	-6%	-3%
CS(=O)(=O)c1cccc(C(=O)OCC(=O)NCc2cccs2)c1	4%	-2%	0%
CCOC(=O)C1=CNS(=O)(=O)NC1c1ccc(C(F)(F)F)cc1 (stereo not drawn)	7%	-24%	11%
CCOc1ccc(OCCC(=O)OCC(=O)NCCc2ccc(S(N)(=O)=O)cc2)cc1	-21%	-12%	8%
CCOc1ccc(C2Nc3ccccc3C(CC)(CC)O2)cc1 (stereo not drawn)	-6%	-5%	-1%
O=C(CCn1c(=O)[nH]c2ccsc2c1=O)NCc1ccc(F)cc1	4%	-23%	-2%
CC1CCCN(CC(O)COCc2ccccc2)C1 (stereo not drawn)	-1%	-11%	2%
COc1ccc([C@H]2CC(=O)C=C(c3ccc4c(c3)OCO4)C2)cc1OC	-11%	-6%	-1%
COc1ccc(N(CCOc2ccccc2)S(=O)(=O)c2ccccc2)cc1	-3%	-17%	-2%
CC(Oc1ccccc1F)c1nnc(SCC(=O)N(c2ccccc2)C2CCS(=O)(=O)C2)o1 (stereo not drawn)	-9%	?	1%
COC(=O)C1=C(c2ccc(F)cc2OCc2ccccc2)C[C@@H]2CC[C@H]1N2C(=O)NCCCc1ccccc1	13%	-30%	0%
CN(c1ccccc1)S(=O)(=O)c1cccc(NC(=O)Cc2n[nH]c(=O)c3ccccc23)c1	9%	?	1%
Cc1cc(OCC(=O)OCC(=O)N(C)Cc2ccccc2C)ccc1Cl	1%	-25%	11%
O=C(NCc1cccc(Cl)c1)c1cccc(S(=O)(=O)N2CCCCC2)c1	-14%	-9%	-6%
CC(Sc1nnc(C(C)Oc2ccccc2F)o1)C(=O)NCc1ccc2c(c1)OCO2 (stereo not drawn)	4%	-18%	-2%
COc1cccc(NC(=O)C(C)(C)C)c1	-5%	-8%	2%
Cc1cc(C)c2nc(Cl)c(C3NC(=O)c4ccccc4N3)cc2c1 (stereo not drawn)	-10%	-30%	20%
O=C(OCc1c(-c2ccccc2)ncc2ccccc12)c1ccc(C(F)(F)F)cc1	2%	?	0%
O=C(COC(=O)c1cccnc1Cl)NC1CCCc2ccccc21 (stereo not drawn)	-6%	1%	-3%
COc1ccccc1CNC(=O)COC(=O)c1ccc([N+](=O)[O-])o1	-13%	-17%	4%
C[C@H](CO)N1C[C@H](C)[C@@H](CN(C)CC2CCCCC2)Oc2ccc(NS(C)(=O)=O)cc2C1=O	1%	-3%	1%
COC(=O)C1=C(c2ccc(-c3ccccc3)c(F)c2)C[C@@H]2CC[C@H]1N2C(=O)NCCOc1ccccc1	2%	?	0%
O=C(CN1C(=O)NC2(CCCCCC2)C1=O)Nc1ccc(Cl)cc1Cl	4%	-16%	2%
CC1CCN(C(=O)Cn2cc(C(F)(F)F)ccc2=O)c2ccccc2S1 (stereo not drawn)	4%	-9%	2%
CN1CCN(CCCNC(=O)c2ccc(/C=C3/Sc4ccccc4N(Cc4cccc(Cl)c4)C3=O)cc2)CC1	29%	-15%	-4%
O=C(CC1CC2CCC1C2)N1CCN(S(=O)(=O)c2ccccc2C(F)(F)F)CC1 (stereo not drawn)	-1%	?	12%
O=C1OCCC1Sc1nnc(-c2ccc3c(c2)OCO3)o1 (stereo not drawn)	-19%	-14%	2%
C#CCOCCOCCOCCNc1nc(N2CCN(C(=O)[C@H](CCCN=C(N)N)n3cc(C(N)[C@@H](C)CC)nn3)CC2)nc(N2CCN(C(=O)[C@H](CC(N)=O)n3cc([C@@H](N)CC(N)=O)nn3)CC2)n1 (stereo partly drawn)	-6%	67%	-24%
O=C(Nc1cc(S(=O)(=O)N2CCOCC2)ccc1N1CCCCC1)c1ccc(Cl)cc1	-7%	-21%	-4%
CCCC(C(=O)Nc1ccc(S(=O)(=O)N2CCOCC2)cc1)c1ccccc1 (stereo not drawn)	30%	?	-10%
O=C1NC[C@H](c2ccccc2)N(CCC23CC4CC(CC(C4)C2)C3)C1=O	3%	-7%	0%
Cc1ccc2c(CN3CCN(S(=O)(=O)c4ccccc4C(F)(F)F)CC3)cc(=O)oc2c1C	17%	?	1%
CCCCC1CCC(C(=O)N(CCOC)c2c(N)n(CC(C)C)c(=O)[nH]c2=O)CC1 (stereo not drawn)	1%	-11%	-1%
c1ccc2c(CCN3CCNC[C@H]3Cc3cccc4ccccc34)cccc2c1	6%	-14%	-2%
Cc1ccccc1OCC(=O)OCC(=O)Nc1ccc2c(c1)OCCO2	-12%	-5%	3%
CC(NC(=O)COC(=O)c1ccccc1F)C1CC2CCC1C2 (stereo not drawn)	-1%	-5%	-12%
O=C(/C=C/c1ccc(S(=O)(=O)N2CCOCC2)cc1)NCCCn1ccnc1	10%	-5%	-2%
COc1ccc(Cl)cc1C(=O)NNC(=O)c1nn(C)c(=O)c2ccccc12	-13%	-25%	-3%
COc1cc(C(=O)NNC(=O)c2ccc3ccccc3n2)cc(OC)c1OC	-4%	23%	1%
COc1ccc(CCN(C)C(=O)CCNS(=O)(=O)c2ccccc2C(F)(F)F)cc1OC	-15%	16%	4%
COc1ccccc1N1CC(C(=O)NCC2COc3ccccc3O2)CC1=O (stereo not drawn)	4%	-8%	1%
CCSc1nc2c(c(=O)[nH]c(=O)n2C)n1CC(O)COc1ccccc1 (stereo not drawn)	0%	-25%	3%
O=C(CN1c2cccc3cccc(c23)S1(=O)=O)Nc1ccccc1Br	-2%	-27%	4%
CCOC(=O)C1CCCN(C(=S)Nc2ccc(OC)cc2)C1 (stereo not drawn)	16%	-1%	9%
CN1[C@H]2CC[C@@H]1C(C(=O)N1CCOCC1)=C(O)C2	4%	6%	6%
CCN1C(=O)c2cccc3c(S(=O)(=O)N4CCNCC4)ccc1c23	22%	-7%	2%
CC(=O)Cn1c(CN2CCCCC2)nc2ccccc2c1=O	-9%	5%	1%
CCOC(=O)c1oc2ccc(Cl)cc2c1NC(C)=O	8%	-11%	5%
N#Cc1ccccc1S(=O)(=O)N1CCN(C(=O)C2CCCCC2)CC1	11%	-8%	1%
Cc1nn(-c2cccc(Cl)c2)nc1C(=O)Nc1cccc(C(=O)NC2CC2)c1	-6%	?	-4%
COC(=O)[C@]1(Cc2ccccc2)N[C@H](CN(C)C(=O)Nc2ccc(C)cc2)[C@@H]2C(=O)N(C)C(=O)[C@@H]21	12%	-11%	4%
Cc1csc(=O)n1CC(=O)Nc1ccc(Cl)cc1F	6%	0%	6%

Screening data from PubChem BioAssay.

Not all compounds are listed; count on the stated rates, not on these rows.
